# ClpP mod – qHTS Assay for Activators of ClpP. Potency, µM (titrated, usually from 57.5 µM), for the others: at the highest dose activity change, negative = active. purified B. subtilis ClpP, FRET peptide cleavage, 20 min. hit rate 1.9% among 340,000. ATP-dependent Clp protease proteolytic subunit (Bacillus subtilis (strain 168)), P80244; active = well fitted falling curve with a large enough effect; inconclusive = small, poorly fitted or top-dose-only effect; inactive = no such curve, though single readings can be large or run the other way; further: potency means the concentration at half of the fitted maximal effect; the source files actives as falling curves though it sought activators and does not explain the sign; nearly all actives have a fitted effect of over 65% in size; many hits overshoot -100%
# Target sequence (P80244 whole entry, looked up): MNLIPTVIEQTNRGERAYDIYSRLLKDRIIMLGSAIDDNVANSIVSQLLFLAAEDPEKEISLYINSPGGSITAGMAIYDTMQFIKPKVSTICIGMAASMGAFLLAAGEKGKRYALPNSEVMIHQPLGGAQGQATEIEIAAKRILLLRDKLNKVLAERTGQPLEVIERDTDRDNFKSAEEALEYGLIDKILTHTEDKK
#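 Purified B. subtilis ClpP, 10 microg/mL final in Tris/HCl pH8 with KCl, BSA, glycerol and Tween-20, cleaved an Abz/nitrotyrosine-quenched decapeptide. Fluorescence (ex 320, em 430) was read at 0 and 20 min at room temperature. Delta was normalized to 5.8 microM ADEP and DMSO/no-enzyme controls.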
# gsp antagonist – gsp mutant antagonism; gsp-mutant cells, cAMP HTRF, 30 min; control for the full effect not named in the record; hit rate 0.4% among 340,000; AID 624288; Potency, µM (highest dose often 76.9 µM), without a hit: at the highest dose activity change, negative = inhibition, hits mostly inhibitors; active = falling curve of any shape with a large fitted effect; inconclusive = falling curve, mostly with a smaller effect; inactive = flat or rising curve; cell line not stated here;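 further: intracellular cAMP measured with PDE inhibitor Ro 20-1724 present during compound exposure; potency means the concentration at half of the fitted maximal effect; on the % scale 0 is the no-effect control and ±100 the full control effect; nearly all actives have a fitted effect of over 65% in size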
#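 Measurement of cellular cAMP by homogeneous time-resolved fluorescence following a 30 min compound exposure at 37C. The PDE inhibitor […] was present throughout; the assay buffer was DPBS with 0.05% BSA and 0.005% Tween 20.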
# TRPML1 blocker – inhibitors of human TRPML1 channel. hit rate 0.02% among 390,000. Q9GZU1. TRPML1-inducible cells, Ca2+ dye fluorescence, FDSS; stronger effect = lower value; inhibition of EC80 agonist-evoked calcium signal. activity change, negative = inhibition, % (test concentration not listed). AID 624415; in the data active means activity change below about -50%; inconclusive means about -30% to -50%; inactive means above about -30%;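 further: stimulus is agonist 54-4 at its EC80 concentration; on the % scale 0 is the no-effect control and ±100 the full control effect; compound concentration not given in the record; the text of the record puts the active cut at -80%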
# Target sequence (Q9GZU1 whole entry, looked up): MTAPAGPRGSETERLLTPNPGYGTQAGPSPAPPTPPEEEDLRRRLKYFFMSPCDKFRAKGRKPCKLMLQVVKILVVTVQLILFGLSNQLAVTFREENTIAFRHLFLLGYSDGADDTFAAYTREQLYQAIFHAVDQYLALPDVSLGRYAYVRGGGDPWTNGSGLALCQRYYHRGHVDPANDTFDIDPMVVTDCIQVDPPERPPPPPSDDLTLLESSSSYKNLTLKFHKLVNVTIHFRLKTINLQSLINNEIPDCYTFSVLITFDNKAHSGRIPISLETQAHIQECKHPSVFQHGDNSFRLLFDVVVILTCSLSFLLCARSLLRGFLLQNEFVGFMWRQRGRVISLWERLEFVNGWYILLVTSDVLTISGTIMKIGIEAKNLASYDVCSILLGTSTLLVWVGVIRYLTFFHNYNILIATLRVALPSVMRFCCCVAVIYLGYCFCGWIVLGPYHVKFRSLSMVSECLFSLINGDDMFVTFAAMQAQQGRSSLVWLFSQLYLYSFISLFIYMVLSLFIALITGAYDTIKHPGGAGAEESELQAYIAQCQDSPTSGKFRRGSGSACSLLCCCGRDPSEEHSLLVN
#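 TRPML1-DL cells, Tet-induced overnight (~16 h, 37 °C) at 1,500 cells/well, were loaded with Ca8 no-wash dye plus quencher for 45-90 min at room temperature. Compounds were pinned during FDSS kinetic reading; agonist 54-4 at EC80 (4 uM final) then added.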
# gsp agonist – activates gsp, the McCune-Albright syndrome mutation | Potency, µM (titrated, usually from 76.9 µM), for the others: at the top dose activation (cAMP increase), most hits filed as activators | gsp mutant cells, cAMP HTRF, 30 min; control for the full effect not named in the record | hit rate 0.13% among 340,000; active = well fitted activation curve with a large enough effect; inconclusive = small, poorly fitted or top-dose-only effect, or another doubt; inactive = no such curve, though single readings can be large or run the other way; cell line not stated here;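 further: phosphodiesterase inhibitor Ro 20-1724 added with compounds to block cAMP breakdown; potency means the concentration at half of the fitted maximal effect; nearly all actives have a fitted effect of over 60% in size; about a fifth of the inactives were tested at one dose only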
#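 Cells in DMEM/10% FBS with G418 were pretreated with compounds in DMSO plus […] (300 uM stock) for 30 min at 37C. cAMP was measured by HTRF (cAMP-d2 plus anti-cAMP antibody-K) after 30 min at room temperature.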
# Menin MLL FP FL – inhibitors of human menin-MLL interaction, wild-type MLL peptide; Fluorescence polarization, fluorescein-MLL peptide displacement from menin; FP activity change, % at 61.4 µM; 290,000 tested, under 10 active; inconclusive = falling polarisation curve, or a change in total fluorescence; inactive = total fluorescence flat and polarisation flat or rising; no compound was filed as active; the % refers to the polarisation; negative = inhibition;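 further: % of control where 0% means no effect; inhibitors lower the polarisation; unlabelled MLL peptide was the positive control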
# TRPML1 ag – human mucolipin-1 channel agonism. Q9GZU1. TRPML1-expressing cells, Ca2+ dye fluorescence, FDSS; host cell line not named in the record; reference of the full effect not given here. activation, % (no concentration beside the values). hit rate 0.12% among 410,000. AID 624414; in the data active = activation above about 50%; inconclusive = about 30% to 50%; inactive = below about 30%; further: 0% is about no effect; the text of the record puts the active cut at 80%
#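 Agonist activity was taken from a 110 s kinetic Ca2+ dye read on the FDSS after pinning compounds onto TRPML1-DL cells. The cells were seeded at 1,500/well with Tet inducer, incubated about 16 h, then dye-loaded at room temperature.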
# Starred values were filed as active, the others as inactive; u = inconclusive; x = no result given; & = joins results of further samples; [ ] = another dose, or the depositor's remark. Not a hit list. About 2.1% of those tested had a hit in this group.
SMILES,ClpP mod,gsp antagonist,TRPML1 blocker,gsp agonist,Menin MLL FP FL,TRPML1 ag
CCCN(CCC)S(=O)(=O)c1ccc(C(=O)Nc2ccc(S(=O)(=O)Nc3nnc(CC)s3)cc2)cc1,7.0%,-30%,-2,-4%[15.4 µM],-1.4,-1.1
COc1ccc(C)cc1NC(=O)C(=O)NCCc1csc2nc(-c3ccccc3F)nn12,-0.2%,x,-11,x,x,0.0
COc1ccc(S(=O)(=O)N2CCC(C(=O)NCc3cccnc3)CC2)cc1Cl,x,7%,-16,-2%[15.4 µM],-2.4,-0.7
COc1ccc(-n2nc(C(=O)NCC(=O)NC3CCCCC3)c3ccccc3c2=O)cc1,x,-9%,-3,13%[15.4 µM],-1.1,-0.6
CC(=O)Nc1ccc(NC(=O)CC(c2ccccc2)c2ccccc2)cc1,-0.3%,-3%,-19,-4%[15.4 µM],-6.2,0.3
CC(C)(C)C1CCC(C(=O)Nc2ccc(N3CCOCC3)cc2N2CCOCC2)CC1 (centres undefined),-0.3%,-2%,-10,35%,x,-0.4
Cc1ccc(OCc2nnc(SCc3cc(=O)[nH]c4ccccc34)n2-c2ccccc2)cc1,-1.5%,u,2,-17%[15.4 µM],2.8,0.0
Cc1cccc(NC(=O)c2ccc3c(O)c(S(=O)(=O)c4ccccc4)c(=O)[nH]c3c2)c1C,u,x,6,x,x,-0.3
C=CCn1c(O)c(N=NC(=O)OCC)c2ccccc21,-2.4%,2%,4,13%,3.7,1.7
Cc1ccc(Cl)cc1NS(=O)(=O)c1ccc2c(c1)NC(=O)C(C)C(=O)N2 (centres undefined),-0.5%,13%,-7,-19%,0.4,0.5
CCOc1ccc(-n2c(Cc3cc(=O)[nH]c(=O)[nH]3)nnc2SCC(=O)Nc2nnc(C)s2)cc1,-0.8%,2%,2,28%,-0.5,0.0
COc1cc(C2C3=C(CC(c4ccco4)CC3=O)Nc3ccccc3N2C(C)=O)cc(OC)c1OC (centres undefined),-4.7%,-5%,-6,u,3.8,0.0
CNc1n[nH]c(-c2ccccc2)n1,1.8%,x,1,-55%[inhibitor],x,-0.5
CCOC(=O)CNc1nc(Cl)nc(Nc2ccc(C)cc2)n1,x,8%,-5,3%[15.4 µM],1.1,1.3
COc1ccc(NC(=O)C2CCCN2C(=O)Oc2ccccc2)cc1 (centres undefined),x,4%,-8,10%[15.4 µM],4.4,0.3
O=C(Nc1ccc(C(F)(F)F)cc1)C1CCN(c2cnccn2)CC1,u,4%,-15&-2,14%,-0.3,-0.8&-1.0
Cc1nc2nc[nH]n2c(=O)c1NC(=O)CC12CC3CC(CC(C3)C1)C2,-1.2%&0.6%,3%&3%,10&-9,-1%&-19%,2.9&-0.2,0.4&-0.3
CCc1ccc(-c2cc(C(=O)N/N=C/c3ccco3)[nH]n2)cc1,x,-1%,-1,-3%[15.4 µM],-1.7,-0.8
COc1ccc(-c2csc(N3CCN(c4cc(C)nc5ccccc45)CC3)n2)cc1OC,-8.1%,-25%,8,1%,-6.1,1.6
CCCN(CCC)CCCNC(=O)C1CCC(CNS(=O)(=O)c2cccc3nsnc23)CC1 (centres undefined),-1.6%&-0.3%,8%,22&-23,u,x,0.8&-0.2
O=C(Cn1c(CO)nc2ccccc21)NCc1ccc2c(c1)OCO2,x,3%,12,-10%[15.4 µM],9.1,0.9
CCOC(=O)[C@@H]1[C@H]2COc3ccccc3[C@H]2N2C(=O)N(c3ccc(C(F)(F)F)cc3)C(=O)[C@]12C,0.0%,-3%,-12,8%,0.0,-0.1
COCCNC(=O)c1nn(-c2ccc(C)cc2)c(=O)c2c1c1ccccc1n2C,-24%,x,-12,x,x,0.9
COc1ccc(C(=O)N/N=C/c2ccc(OC)c(CN3CCc4cc(OC)c(OC)cc4C3C)c2)cc1 (centres undefined),1.2%,-4%,11,15%[15.4 µM],u,-0.4
O=C(O)c1nc(N2CCOCC2)nc(N2CCOCC2)n1,-0.1%,3%,3,-15%,-1.3,-0.3
CCOC(=O)c1c(C)[nH]c(C)c1C(=O)COC(=O)CNC(=O)C1CCCCC1,x,5%,4,-1%[15.4 µM],-3.5,-0.4
O=S(=O)(NCc1ccco1)c1ccc2c(c1)Cc1ccccc1-2,-9.6%,2%,-3,17%,1.9,-0.7
COc1ccc(CNS(=O)(=O)c2ccc(-c3cc(C(F)(F)F)on3)s2)cc1OC,1.5%,x,-8,x,x,2.6
CC(=O)NC(=S)Nc1ccc(NC(=S)NC(=O)c2cccs2)cc1,-1.3%,9%,3,-1%,x,-0.3
CC(=O)NCCc1nc2cc(NC(=O)c3ccc(F)cc3)ccc2n1C,u,8%,-12,8%[15.4 µM],4.2,-0.4
N#CCSc1nnc(-c2sc3ccccc3c2Cl)o1,-14%,-16%,-6,21%[15.4 µM],3.1,1.8
O=C(CN(C(=O)CNS(=O)(=O)c1ccc(F)cc1)c1ccc(F)cc1)NCc1ccco1,x,-21%,3,-1%[15.4 µM],x,-0.6
COc1ccc(Cl)cc1S(=O)(=O)N1CCN(C(=O)COc2ccccc2)CC1,0.4%,-6%,0,-19%,1.7,0.8
O=C(COC(=O)C1CCN(C(=O)c2ccc(Cl)cc2)CC1)NC1CCS(=O)(=O)C1 (centres undefined),-1.9%,2%,-7,-25%,0.9,0.9
CCOC(=O)CN(C(=O)Cn1nnc(-c2ccc(OC)cc2)n1)C(C(=O)NC1CCCC1)c1ccc(F)cc1 (centres undefined),0.1%,0%,10,-29%,-2.0,2.4
Cc1ccc(C2=CN(Cc3ccccc3)CCC2=O)cc1,0.9%,4%,23,x,x,1.7
CCN(CC)c1ccc(NC(=O)COC(=O)CCc2cc(OC)c(OC)c(OC)c2)cc1,1.1%,x,0,-31%[inhibitor],x,0.1
CSC(=NCc1cccnc1)NS(=O)(=O)c1cccs1,1.0%,4%,0,-17%,2.9,-0.5
O=C(CN1CCN(c2ncccn2)CC1)NCCC1=CCCCC1,-0.5%,0%,-17,27%,-0.2,1.9
CC(=O)c1ccc(NC(=O)c2ccc3nc(-c4ccco4)c(-c4ccco4)nc3c2)cc1,-14%,-11%,0,-38%[inhibitor],9.1,0.4
COc1cccc(CNC(=O)CCNS(=O)(=O)c2cccc3nonc23)c1,x,4%,-2,-1%,4.5,0.0
O=C(NCCN1C(=O)S/C(=C/c2cccnc2)C1=O)C1=NN(c2ccccc2)C(=O)CC1,-1.9%,-19%,27,9%,x,-0.1
CC(=O)Nc1ccc(S(=O)(=O)N[C@@H](C)C(=O)N2CCN(c3ccccn3)CC2)cc1,x,2%,-5,-7%[15.4 µM],x,-0.3
O=C(OCC(=O)c1c[nH]c2ccccc12)c1ccc(Br)o1,-0.1%,-15%,-13,-6%,1.3,2.6
CCOC(=O)N1CCc2c(sc3c2c(=O)n(Cc2ccccc2)c(=O)n3CC(=O)Nc2cccc(C)c2)C1,-0.9%,x,19,x,x,1.1
CCOc1ccc(NC(=O)CN(C)C(=O)c2n[nH]c(=O)c3ccccc23)cc1OCC,1.9%,11%,2,-5%,x,-0.1
CC[C@]12c3[nH]c4cc(CCC(=O)N(C)C)ccc4c3CCN1C(=O)[C@@H](CC(=O)NCc1cccc(C(F)(F)F)c1)C[C@@H]2C(=O)N1CCN(C(=O)C2CC2)CC1,-3.7%,4%,48,x,x,-0.3
Cc1ccc(C(=O)N2CCN(S(=O)(=O)N3CCCCC3)CC2)cc1,-1.2%,11%,13,8%[15.4 µM],x,0.2
COc1cccc(/C=C/c2nc(C#N)c(N(C)Cc3ccccc3)o2)c1,4.1%,x,63,x,x,1.4
COc1ccc(OC)c(S(=O)(=O)Nc2ccc(C(C)=O)cc2)c1,-4.8%,7%,-10,-5%,-0.4,2.5
CCC(=O)NC(c1ccc(C)cc1)c1cc([N+](=O)[O-])c2cccnc2c1O (centres undefined),-3.2%,-1%,14,2%,4.5,0.7
CC(=O)Nc1cccc(N2C(=O)CCC2=O)c1,-3.9%,-5%,-5,-36%[inhibitor],3.9,-0.8
COC(=O)c1ccc(NC(=O)C2CCCN2S(=O)(=O)c2ccc(F)cc2)cc1 (centres undefined),0.0%,-9%,1,1%,2.3,1.1
Cc1ccc(C(=O)NCCS(=O)(=O)N2CCN(c3ccccc3F)CC2)cc1[N+](=O)[O-],1.2%,-12%,-1,19%,0.4,-0.5
Cc1nnc(NC(=O)CSC2=NN3CCCC(=O)N=C3S2)s1,2.0%,-8%,13,u,-0.1,0.7
CN(C)C(=O)CN1C(=O)NC2(CCCc3ccccc32)C1=O (centres undefined),0.1%,4%,-13,-2%,x,0.8
O=C(NC(=S)Nc1ccccc1N1CCCCC1)c1cccs1,0.7%,-2%,-17,0%,9.1,1.0
CCCCCCCCCCCCCCCC(=O)NCCc1c[nH]c2ccccc12,-1.4%,13%,x,x,-2.7,x
OC1C2CCC(C2)C1CN1CCOCC1 (centres undefined),x,9%,-11,-6%,x,0.6
Cc1ccccc1NC(=O)NCC1CCN(c2ccc(S(=O)(=O)N3CCOCC3)cc2)CC1,x,-13%,-10,-3%[15.4 µM],4.0,-1.0

# Following part
SMILES,ClpP mod,gsp antagonist,TRPML1 blocker,gsp agonist,Menin MLL FP FL,TRPML1 ag
Cc1ccc(OCC(=O)OCc2cc(=O)n3nc(C4CCCCC4)sc3n2)cc1C,-1.8%,x,5,x,x,-0.3
Cc1ccc(Cl)c(OC(=O)Cn2cnc3c2c(=O)n(C)c(=O)n3C)c1,x,-5%,3,-22%[15.4 µM],-0.1,-1.3
Fc1c(F)c(F)c(CSc2nc3ccccc3[nH]2)c(F)c1F,-0.2%,-30%,18,1%,3.7,1.9
COC(=O)CC(NC(=O)c1ccc(C)cc1)c1ccccc1 (centres undefined),-8.9%,-12%,-2,16%,-0.4,-0.6
Clc1ccc(C(c2nnnn2C2CCCC2)N2CCN(c3nc4ccccc4s3)CC2)cc1 (centres undefined),0.3%,1%,29,-26%,x,1.5
CN(c1ccccc1C(N)=O)S(=O)(=O)c1ccccc1,-1.9%,9%,22,u,3.0,0.2
CC(C)(C)OC(=O)NCCc1nnc(SCc2cccc(Cl)c2)o1,x,7%,12,-6%[15.4 µM],-3.4,3.1
O=C(O)CCN1CCc2ccccc2C1c1cccs1 (centres undefined),x,11%,-2,11%[15.4 µM],-2.1,-0.6
CC1CCCC(NC2CCCCNC2=O)C1 (centres undefined),-1.0%,-3%,4,0%,-1.9,-0.1
CCOC(=O)c1c(NC(C)=O)sc2c1CCC(C=NCCCN(CC)CC)=C2Sc1ccccc1,-9.1%,-19%,7,-9%,x,0.7

# Screening data as filed in PubChem BioAssay.
